Calb FLC = C. albicans growth inhibition with fluconazole, primary screen, CaCi-2 strain, Alamar Blue fluorescence. growth inhibition, % (test concentration not listed). 300,000 tested, 0.57% active. C. albicans CaCi-2 (fluconazole-resistant clinical isolate) + fluconazole, 48 h;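 active = most replicates above 75%; inconclusive = exactly half above 75%; inactive = most below 75%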;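 also: all wells also contain fluconazole at 8 µg/ml as a sub-toxic cotreatment; 0% = median of DMSO wells and 100% = median of geldanamycin control wells; wells of about 8 µL received 7.5 nL stock; the first replicate is given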
Beta cell apopt = inhibitors of cytokine-induced beta cell apoptosis, primary screen, luminescence | INS-1E cytokine-induced death, ATP luminescence, 48 h; percent of positive-control rescue, neutral wells zero | protection from apoptosis, % (test concentration not listed) | 300,000 tested, 0.8% active | AID 435005, 2010;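 active = all replicates at 75% or more, or half of them and the mean; inconclusive = half reach 75% but not the mean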;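 also: 0% = cytokine-treated negative control wells and 100% = positive control rescue; higher means more ATP so stronger rescue from cytokine killing; wells of about 40 µL received 100 nL stock; the first replicate is given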
RanGTP-Impb inh = inhibitors of RanGTP-importin-beta interaction, primary screen, biochemical, FRET, CFP-Ran, YFP-importin-beta, homogeneous. Ran GTPase (GTP-bound) - importin-beta complex. cell-free CFP-Ran/YFP-importin-beta FRET ratio. inhibition, % (test concentration not listed). 300,000 tested, 1.1% active. AID 2216, 2009;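 active = most replicates above 15%; inconclusive = exactly half above 15%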;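 also: 0% = DMSO wells and 100% = Ran loaded with GDP instead of GTP; wells of about 40 µL received 100 nL stock; the first replicate is given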
ALR inh = inhibitors of human ALR sulfhydryl oxidase, primary screen, biochemical, H2O2 detection, HRP-luminol luminescence, single point | FAD-linked sulfhydryl oxidase ALR (Homo sapiens), P55789 | purified ALR, DTT oxidation | inhibition, % (no concentration beside the values) | 290,000 tested, 3.8% active;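 active = mean and each replicate at 75% or more; inconclusive = only one of the two met; inactive = neither met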;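 also: stock transfer was 7.5 nL into about 7.5 µL; 0% = neutral wells and 100% = wells with inactivated enzyme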
Target sequence (P55789 whole entry, looked up): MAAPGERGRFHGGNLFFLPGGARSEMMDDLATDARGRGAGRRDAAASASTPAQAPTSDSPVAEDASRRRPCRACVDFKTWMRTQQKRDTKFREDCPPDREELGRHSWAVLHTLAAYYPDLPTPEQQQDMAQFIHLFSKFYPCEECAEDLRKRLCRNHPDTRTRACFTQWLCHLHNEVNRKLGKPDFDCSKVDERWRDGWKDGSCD
MLL AF4-AF9 inh = inhibitors of AF4 peptide binding to AF9, primary screen, biochemical, AlphaScreen, biotin-AF4 peptide, FLAG-AF9, single point. Protein AF-9 (Homo sapiens), P42568. inhibition, % at 10 µM. 350,000 tested, 0.47% active;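 active = every replicate reaching a set inhibition limit, whatever the replicate mean, cut at about 25% in these data; inconclusive = mean inhibition reaches that limit but some replicates miss it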;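 also: 0% = plate neutral control median and 100% = total signal loss; the record names both 10 and 1 µM as test concentration; the first replicate is given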
Target sequence (P42568 whole entry, looked up): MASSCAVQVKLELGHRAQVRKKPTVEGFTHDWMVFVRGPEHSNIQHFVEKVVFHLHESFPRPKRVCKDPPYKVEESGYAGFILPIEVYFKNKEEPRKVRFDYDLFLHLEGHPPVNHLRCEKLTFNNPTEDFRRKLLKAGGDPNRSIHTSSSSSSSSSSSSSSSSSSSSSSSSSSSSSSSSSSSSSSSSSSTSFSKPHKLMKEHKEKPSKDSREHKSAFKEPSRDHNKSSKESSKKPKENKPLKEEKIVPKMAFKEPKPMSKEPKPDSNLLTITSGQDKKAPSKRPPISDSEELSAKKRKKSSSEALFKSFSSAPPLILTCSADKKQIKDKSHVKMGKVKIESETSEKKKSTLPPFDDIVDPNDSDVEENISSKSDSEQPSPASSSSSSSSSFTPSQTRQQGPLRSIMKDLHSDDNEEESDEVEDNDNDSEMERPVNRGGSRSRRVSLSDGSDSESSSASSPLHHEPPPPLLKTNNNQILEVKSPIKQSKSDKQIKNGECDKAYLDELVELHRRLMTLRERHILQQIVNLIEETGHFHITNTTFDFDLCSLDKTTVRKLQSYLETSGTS
T cruzi inh = inhibitors of intracellular T. cruzi growth, primary screen, luminescence, NIH3T3 host cells; T. cruzi beta-gal in NIH3T3, 90 h; inhibition, % (concentration not given with the values); 300,000 tested, 1.4% active; AID 1885, 2009;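 active = mean inhibition across valid replicates above about 55%, limit read from the data; inconclusive = mean below that limit but half or more replicates reach it; inactive = mean below it, under half of replicates reach it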;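 also: signal also drops with host cell toxicity which is not excluded here; 0% = plate median of DMSO wells and 100% = zero luminescence signal; higher percent means less beta-gal luminescence so fewer parasites; stock transfer was 50 nL into about 50 µL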
FGF22 binding = binders of human FGF22 protein, primary screen, FGF22 synaptogenesis inhibitor project, biophysical, thermal shift, single point | recombinant FGF22 thermal shift, SYPRO orange fluorescence; percent of sucrose octasulfate shift, DMSO zero | 340,000 tested, 1.5% active | Fibroblast growth factor 22 (Homo sapiens), Q9HCT0 | AID 651658, 2012 | calls only at 9.99 µM;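 active = melting point raised past a set limit in the mean and every replicate; inconclusive = no clear call; three in four hits are not shown here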
Target sequence (Q9HCT0 whole entry, looked up): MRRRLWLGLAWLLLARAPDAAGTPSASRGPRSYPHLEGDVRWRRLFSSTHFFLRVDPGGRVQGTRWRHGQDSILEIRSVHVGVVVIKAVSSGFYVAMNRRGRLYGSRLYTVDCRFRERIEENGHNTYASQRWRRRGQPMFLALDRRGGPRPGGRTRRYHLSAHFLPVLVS
rRNA inh HTS = reduced GFP signal of wild-type E. coli, primary screen, bacterial rRNA inhibitor project, GFP/RFP fluorescence, OD600, single point; E. coli WT GFP vs humanized-ribosome RFP mutants, 24 h; stronger effect = lower value; DMSO median 0, no signal -100; GFP signal change (wild-type ribosome), % (test concentration not listed); 350,000 tested, 1.6% active; AID 720706, 2013;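 active = significant combined selectivity score with lowered wild-type GFP, culture density cut under 30%, mutant RFP and density less affected; inactive = any of these conditions unmet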; also: one replicate is shown; some compounds called inactive have numbers as strong as hits
rRNA inh HTS OD600 = further read-out of rRNA inh HTS, marked with its call; OD600 change, %; measured here: OD600 growth;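 optical density of the mix in the first replicate; 0 = DMSO median and -100 = no signal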
rRNA inh HTS RFP = second read-out of rRNA inh HTS, no call of its own (marks repeat the call); RFP signal change, %; measured here: RFP humanized mutant strains;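 first replicate; 0 = DMSO median and -100 = no signal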
Active calls of the source: *; i = inactive; u = inconclusive; x = not tested or not shown. Only part of the results is shown. The share of hits here may be higher or lower than overall.

SMILES	Calb FLC	Beta cell apopt	RanGTP-Impb inh	ALR inh	MLL AF4-AF9 inh	T cruzi inh	FGF22 binding	rRNA inh HTS	rRNA inh HTS OD600	rRNA inh HTS RFP
O=C(C(c1ccccc1)N1CCOCC1)N1CCOCC1 (stereo not drawn)	-11	-3	4.3	-10	x	-8	x	x	x	x
C/C(=N/NC(=O)c1cc(O)c(O)c(O)c1)c1ccc([N+](=O)[O-])cc1	91*	x	9.1	x	3.5	18	i	3	9	8.6
COc1c(Br)cc(/C=N/n2c(-c3ccccc3)n[nH]c2=S)c(O)c1Br	-14	5	-2.5	22	-0.1	-2	i	-4	-12	-2.5
CSCCC(NC(=O)COc1cccc2ccccc12)C(=O)O (stereo not drawn)	0	0	3.8	-11	-37	-11	i	8	-1	-3.3
CC(C)C(=O)N[C@H]1CCC2C3CC=C4C[C@@H](O)CC[C@]4(C)C3CC[C@@]21C (stereo partly drawn)	x	2	x	-2	-1.4	x	i	3	-7	3.9
CCOc1ccccc1OCC(=O)Nc1nnc(COC)s1	-20	-3	-0.3	-2	x	-24	x	x	x	x
COc1ccccc1/C=C/C(=O)OCC(=O)c1c[nH]c2ccccc12	x	-3	x	x	-5.1	x	i	0	-18	2.2
COc1cccc(CNC(=O)CCCc2cn(C)c3ccccc23)c1	-1	1	-3.6	-1	3.0	1	i	-23	-28	1.1
COc1ccccc1N1CCN(C(=O)C2CCN(C(=O)c3ccc(C(C)(C)C)cc3)CC2)CC1	-2	-2	2.5	-3	1.4	5	i	x	x	x
NC(=O)NC(=O)COC(=O)c1cccc(S(=O)(=O)N2CCCCCC2)c1	-4	-8	-2.0	0	-3.1	-14	i	-3	5	2.9
CCOC(=O)c1c(NC(=O)CCc2ccc(CC)o2)sc(C)c1C	-4	4	7.1	97*	x	0	x	-5	5	1.2
CN(CC(=O)NCC1CCCCC1)S(=O)(=O)c1ccc(F)cc1	-2	2	3.4	3	1.2	5	i	1	7	2.3
Cc1cc(=O)n2nc(N3CCC(C(=O)NCc4cccnc4)CC3)sc2n1	-4	-3	-1.5	x	x	-4	x	x	x	x
CC(C)(C)C(=O)Nc1ccccc1C(=O)Nc1cc(Cl)ccc1Cl	-26	6	-4.8	-5	x	-1	x	x	x	x
O=C1CSC(c2ccc(F)cc2)N1c1ccccc1F (stereo not drawn)	8	-3	-2.0	6	-0.8	-19	i	8	13	3.4

Some entries already given, limited to FGF22 binding and rRNA inh HTS RFP.
Structure | FGF22 binding | rRNA inh HTS RFP
COc1c(Br)cc(/C=N/n2c(-c3ccccc3)n[nH]c2=S)c(O)c1Br | i | -2.5
CSCCC(NC(=O)COc1cccc2ccccc12)C(=O)O (stereo not drawn) | i | -3.3

Additional compounds.
SMILES	Calb FLC	Beta cell apopt	RanGTP-Impb inh	ALR inh	MLL AF4-AF9 inh	T cruzi inh	FGF22 binding	rRNA inh HTS	rRNA inh HTS OD600	rRNA inh HTS RFP
CCN(CC)CCNC(=S)N1CCn2c(nc3ccccc32)C1	-5	-5	1.4	3	-4.1	-5	i	1	12	2.4
Cc1nc2cc(-c3ccccc3)nn2c(N)c1-c1ccccc1	x	6	x	26	-5.5	x	i	7	9	-1.7
CCC(C)n1c(SCC(=O)NCCc2ccc(S(N)(=O)=O)cc2)nc2ccsc2c1=O (stereo not drawn)	3	-18	-1.0	0	x	10	x	x	x	x
Cc1nn(C(=O)Cn2cc([N+](=O)[O-])cn2)c(C)c1Cl	-2	-1	-3.0	1	-15	-6	i	2	4	-2.6
COc1ccccc1N1CCN(CCCCN2C(=O)C3CCCCN3C2=O)CC1 (stereo not drawn)	-12	-9	-3.0	-28	x	3	x	x	x	x
O=C(CCCOc1ccccc1)N1CCN(S(=O)(=O)c2ccccc2)CC1	x	1	x	x	-3.6	x	i	4	14	-0.4
O=C(CN1C(=O)/C(=C/c2ccc(F)cc2)SC1=S)NC1C=CS(=O)(=O)C1 (stereo not drawn)	16	-5	-2.5	-32	-1.8	-7	i	7	11	1.8
Cc1cccc(N(C)C(=O)C2CCCN2S(=O)(=O)c2cccc3nsnc23)c1 (stereo not drawn)	3	-1	-1.2	-4	3.6	-12	i	-1	-4	-0.6
OCCNc1ncnc2c1c(-c1ccccc1)c(-c1ccccc1)n2Cc1ccco1	3	7	-1.0	-9	x	5	x	x	x	x
CSc1nsc(SCC(=O)Nc2nc3ccc(C)cc3s2)n1	u	-12	2.5	2	-1.6	-15	i	5	4	0.8
CCOc1ccc(N/C(=N/c2nc(C)cc(C)n2)NC(=O)CC)cc1	-11	-4	-2.6	-25	-3.0	-9	i	7	3	3.1
CCCCN(C)CCNC(=O)c1nn(-c2ccc(OC)cc2)c(=O)c2c1c1ccccc1n2C	3	-9	2.1	-7	3.2	61*	i	5	11	1.0
O=S(=O)(c1ccccc1)N1CCN(C(=S)Nc2ccccc2Cl)CC1	0	25	-3.6	-4	-1.6	-16	i	-8	-13	-2.2
O=C1NC(=O)/C(=C/c2cccc3ccccc23)S1	107*	x	10	39	-0.6	-1	i	-44	-75	-16
N#CCCN(C(=O)COC(=O)CCc1c[nH]c2ccccc12)c1ccccc1	-2	x	5.4	11	0.8	-2	i	-6	-1	0.5
COc1ccc(CCN2C(=O)CSC2=S)cc1OC	24	-32	4.2	-5	-1.0	52	i	4	8	27
Cc1cccnc1Nc1ncnc(N)c1[N+](=O)[O-]	5	2	-1.1	-3	-0.8	-12	x	12	3	0.9
Cc1cnc(NC(=O)Nc2ccc(Cl)cc2)s1	-18	25	0.6	x	-11	20	i	-22	-23	0.7
CC1=C(C)C(C)=C(C#N)C(=C(C#N)C#N)N1	-24	-3	4.6	11	-8.1	-1	i	2	4	2.4
COc1cc(/C=N/NC(=O)C(=O)/C=C2\NC(C)(C)Cc3ccccc32)ccc1O	5	-5	-3.2	82*	9.5	9	i	1	-5	-0.7
Cc1cccc(N2CCN(C(=O)c3ccc4c(c3)OCCO4)CC2)c1C	2	-10	-3.4	-16	-2.0	-5	i	-28	-36	-1.5
O=C(NN=C1CCCCC1)c1ccccc1-n1cccc1	-8	-6	-0.4	11	-0.1	2	i	22	13	1.5
CCCCCCOc1ccc(NC(=O)CC2C(=O)N(CC)C(=S)N2Cc2ccco2)cc1 (stereo not drawn)	12	12	2.3	-1	x	u	x	x	x	x
CCCCNC(=O)CSc1nc2ccccc2c(=O)n1C1CCCC1	12	-2	-1.5	-18	x	21	x	x	x	x
Cc1onc(C(=O)NCCc2ccccc2)c1[N+](=O)[O-]	-1	-6	5.9	x	0.3	-14	i	2	5	-1.0
COc1ccc(C)cc1N(CC(=O)NCCSCc1ccco1)S(=O)(=O)c1ccc(C)cc1	5	12	2.0	x	-1.1	28	i	7	7	-1.1
CN(C)c1ccc(-c2nnc(-c3ccc(S(=O)(=O)C(F)F)cc3)o2)cc1	-10	-1	-37	-13	x	2	x	x	x	x
CCn1cnc2c1c(=O)[nH]c(=O)n2Cc1ccccc1	4	3	5.8	18	x	-4	x	x	x	x
CCC(CO)Nc1ncnc2c1cnn2-c1ccc(Cl)cc1 (stereo not drawn)	4	2	-3.9	1	6.6	-6	i	-10	-12	-10
CCS(=O)(=O)N1CCN(c2ccc([N+](=O)[O-])c(N3CCOCC3)c2)CC1	-3	-4	0.1	-3	x	-3	x	x	x	x
Cc1cc(S(=O)(=O)NCCCN2CCOCC2)ccc1Br	x	-4	x	x	1.5	x	i	3	9	-1.9
Cc1cccc(C(=O)Nc2ccccc2SCC2CSc3nc4ccccc4c(=O)n32)c1 (stereo not drawn)	1	x	-1.5	-8	x	7	x	x	x	x
O=C(c1ccc2oc(CCCc3ccccc3)nc2c1)N1CCCCC1CO (stereo not drawn)	-1	-2	-1.4	-7	0.6	9	i	-5	-11	0.4
O=C(NC1CC2CCCC(C1)N2C(=S)Nc1ccccc1)C1CC1 (stereo not drawn)	1	-3	0.1	-2	1.4	-2	i	8	7	-2.4
Cc1c(Cl)c([N+](=O)[O-])nn1CCCC(=O)NCCc1ccccc1	-7	-3	4.1	-6	6.1	31	i	-1	6	2.7
COC(=O)C1=C(C)NC(=O)C1(Nc1nccs1)C(F)(F)F (stereo not drawn)	3	-5	5.7	5	x	-19	x	x	x	x
O=C(Cn1nnc(-c2ccccc2)n1)NCc1ccc2c(c1)OCO2	-13	2	2.8	-4	x	-2	x	x	x	x
COc1ccc(C2=NCCc3cc(OC)c(OC)cc32)cc1	-11	-10	5.2	-2	x	8	x	x	x	x
CC(C)(C)c1csc(NC(=O)CSC2=NCCS2)n1	-3	3	2.9	99*	1.0	2	i	-6	-17	1.8
N/C(=N\OC(=O)COc1ccc2ccccc2c1Br)c1cccnc1	-25	-2	-1.6	-6	-4.3	23	i	-31	-31	0.0
O=C(CN1C(=O)NC2(CCCC2)C1=O)Nc1ccccc1F	4	-2	-0.7	-1	x	-13	x	x	x	x
Cc1ccccc1-n1c(C)nnc1SCC(=O)NCC1CCCO1 (stereo not drawn)	52	-6	-1.7	-1	-14	18	i	0	3	-2.6
Cc1nc(Cl)c2oc3ccccc3c2n1	13	1	0.5	-3	x	-7	x	x	x	x
Cc1nn2c(N3CCCC3)cc(C(C)C)nc2c1-c1ccccc1	-8	2	-0.7	x	x	16	x	x	x	x

Shown bar-delimited: entries from further up
smiles | Calb FLC | Beta cell apopt | RanGTP-Impb inh | ALR inh | MLL AF4-AF9 inh | T cruzi inh | FGF22 binding | rRNA inh HTS | rRNA inh HTS OD600 | rRNA inh HTS RFP
Cc1nn2c(N3CCCC3)cc(C(C)C)nc2c1-c1ccccc1 | -8 | 2 | -0.7 | x | x | 16 | x | x | x | x
Cc1ccccc1-n1c(C)nnc1SCC(=O)NCC1CCCO1 (stereo not drawn) | 52 | -6 | -1.7 | -1 | -14 | 18 | i | 0 | 3 | -2.6
Cc1c(Cl)c([N+](=O)[O-])nn1CCCC(=O)NCCc1ccccc1 | -7 | -3 | 4.1 | -6 | 6.1 | 31 | i | -1 | 6 | 2.7
Cc1cccc(C(=O)Nc2ccccc2SCC2CSc3nc4ccccc4c(=O)n32)c1 (stereo not drawn) | 1 | x | -1.5 | -8 | x | 7 | x | x | x | x
O=C(c1ccc2oc(CCCc3ccccc3)nc2c1)N1CCCCC1CO (stereo not drawn) | -1 | -2 | -1.4 | -7 | 0.6 | 9 | i | -5 | -11 | 0.4
COc1ccc(C2=NCCc3cc(OC)c(OC)cc32)cc1 | -11 | -10 | 5.2 | -2 | x | 8 | x | x | x | x
O=C(Cn1nnc(-c2ccccc2)n1)NCc1ccc2c(c1)OCO2 | -13 | 2 | 2.8 | -4 | x | -2 | x | x | x | x

Assay outcomes deposited in PubChem by Broad Institute.
